# Bioassay records deposited in PubChem BioAssay by National Center for Advancing Translational Sciences (NCATS).
# Cruzain inh noDet: blocks cruzain activity in detergent-free assay. 200,000 tested, 2.3% active. Potency, µM, without a hit: max response, negative = inhibition, hits mostly inhibitors. purified cruzain, Z-FR-AMC fluorescence, no detergent. AID 1476. P25779;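 also: plate controls were enzyme without inhibitor for no effect and buffer without enzyme for full effect; nearly all actives have a fitted effect of over 40% in size; top concentration of the series not given in the record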
# Target sequence (P25779 123-467 limits assumed): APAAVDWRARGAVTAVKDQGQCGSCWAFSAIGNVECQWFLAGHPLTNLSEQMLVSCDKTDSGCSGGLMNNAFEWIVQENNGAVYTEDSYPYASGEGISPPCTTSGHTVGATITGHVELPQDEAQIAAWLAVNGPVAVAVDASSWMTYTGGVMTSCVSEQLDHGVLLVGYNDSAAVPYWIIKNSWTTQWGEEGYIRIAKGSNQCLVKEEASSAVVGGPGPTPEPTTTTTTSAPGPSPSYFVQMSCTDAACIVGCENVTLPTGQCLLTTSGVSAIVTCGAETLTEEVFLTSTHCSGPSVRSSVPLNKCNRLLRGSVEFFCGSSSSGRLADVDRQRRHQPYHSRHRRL
#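 Purified cruzain at 1.5 nM, pre-incubated 15 min with compound at room temperature in 100 mM sodium acetate pH 5.5, 5 mM DTT, 0.00005% Triton X-100. Reaction started with 2 uM Z-FR-AMC; AMC fluorescence increase over 60 s gives rate.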
# LASV entry inh: Lassa virus entry inhibition | Lassa virus pseudotype entry inhibition, cell reporter; control for the full effect not named in the record | Potency, µM (titrated, usually from 37.9 µM), without a hit: at the highest dose activity change, negative = inhibition, usual class: inhibitors | 300,000 tested, 1.2% active; active means well fitted inhibition curve with a large enough effect; inconclusive means small, poorly fitted or top-dose-only effect, or effect the other way; inactive means flat fitted curve, though single readings scatter; tested in HEK293 cells; also: % is scaled to controls: 0 for no effect and ±100 for the full control effect; nearly all actives have a fitted effect of over 50% in size; luciferase read-out
# RE007 growth inh: less growth of the S. pombe RE007 Vpr strain; S. pombe RE007 Vpr strain, BacTiter-Glo ATP luminescence, 24 h; control for the full effect not named in the record; Potency, µM (highest dose often 92.2 µM), for the others: top-dose activity change, negative = less growth; 360,000 tested, 0.21% active; AID 651644; active = well fitted falling curve with a large enough effect; inconclusive = small, poorly fitted or top-dose-only effect; inactive = no such curve, though single readings can be large or run the other way;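 also: % is scaled to controls: 0 for no effect and ±100 for the full control effect; nearly all actives have a fitted effect of over 50% in size; the assay follows cell death caused by Vpr and the record does not say whether a fall means rescue or toxicity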
#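 Fission yeast strain RE007, carrying one chromosomally integrated HIV-1 vpr copy, was seeded at OD 0.01 in PMG+AL medium with 23 nL pinned compound. After 24 h at 30 °C and 99% humidity, viability was read by BacTiter-Glo luminescence.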
# MARV entry inh: Marburg virus entry inhibition; Marburg virus pseudotyped entry inhibition, cell reporter; control for the full effect not named in the record; about a third of the inactives were read at about 46 µM; Potency, µM (highest dose often 37.8 µM), inactives show at the highest dose activity change, negative = inhibition, actives largely listed as inhibitors; 300,000 tested, 1.8% active; active = well fitted inhibition curve with a large enough effect; inconclusive = small, poorly fitted or top-dose-only effect, or effect the other way; inactive = flat fitted curve, though single readings scatter; tested in HEK293 cells; about a fifth of its hits are not listed in these tables; also: % is scaled to controls: 0 for no effect and ±100 for the full control effect; luciferase read-out
# 2A StopGo: lowers the luciferase signal of an FMDV 2A StopGo reporter | human cells with a luciferase reporter of 2A StopGo recoding; control for the full effect not named in the record | 410,000 tested, 1.2% active | Potency, µM (doses to about 57.9 µM), for inactives: at the top dose signal change, negative = less light; active = well fitted falling curve with a large enough effect; inconclusive = small, poorly fitted or top-dose-only effect; inactive = no such curve, though single readings can be large or run the other way; tested in HEK293T cells; also: % is scaled to controls: 0 for no effect and ±100 for the full control effect; nearly all actives have a fitted effect of over 45% in size; luciferase light after 4 h
# NS1 function inh: inhibitors of influenza NS1 protein function | S. cerevisiae slowed by influenza A NS1, growth recovery by OD600 | 270,000 tested, 0.4% active | AID 2326 | Potency, µM (doses to about 46.1 µM), for the others: at the top dose activity, positive = more growth; active means well fitted rising curve with a large enough effect; inconclusive means small, poorly fitted or top-dose-only effect; inactive means no such curve, though single readings can be large or run the other way; also: nearly all actives have a fitted effect of over 50% in size
#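 OD600 was taken as the measure of yeast growth restored by compound in an NS1-expressing S. cerevisiae strain. Cells had been washed out of glucose medium and diluted 1:100 into galactose -URA medium, pH 6.0.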
# SARS PLP yeast: inhibitors of SARS-CoV papain-like protease in yeast | S. cerevisiae expressing SARS-CoV PLpro, growth rescue; control for the full effect not named in the record | Potency, µM (series often up to 32.9 µM), for the others: at the top dose activity, positive = growth rescue | 330,000 tested, 0.19% active | AID 485353; active means well fitted rising curve with a large enough effect; inconclusive means small, poorly fitted or top-dose-only effect; inactive means no such curve, though single readings can be large or run the other way; also: 0% is about no effect; nearly all actives have a fitted effect of over 55% in size; growth read by luminescence after 48 h
# Cruzain Triton: inhibitors of Trypanosoma cruzi cruzain with detergent. purified cruzain, Z-FR-AMC fluorescence, 0.01% Triton. Potency, µM, without a hit: max response, negative = inhibition, most hits filed as inhibitors. 200,000 tested, 0.43% active;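 also: plate controls were neutral wells for no effect and buffer without enzyme for full effect; nearly all actives have a fitted effect of over 40% in size; top concentration of the series not given in the record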
#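 Compounds were screened in titration against cruzain (1.5 nM) with 0.01% Triton X-100 to counter colloidal aggregation. Activity was the AMC fluorescence increase over 60 s after adding 2 uM Z-FR-AMC at pH 5.5.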
# * marks the source's active call; other numbers are inactive results; ? = inconclusive; / = not tested or not shown; & = joins results of further samples; [ ] = another dose, or the depositor's remark. Unless noted, calls follow the shape of the dose curve; as a rule, active = well fitted curve in the direction sought with a large enough effect; inconclusive = small, poorly fitted or top-dose-only effect, or another doubt; inactive = no such curve, though single readings can be large; an effect the other way counts as inactive or inconclusive. Potency is read from the fitted curve at half-maximal effect.
SMILES,Cruzain inh noDet,LASV entry inh,RE007 growth inh,MARV entry inh,2A StopGo,NS1 function inh,SARS PLP yeast,Cruzain Triton
O=C(NCCN1CCN(c2ccccc2F)CC1)C1COc2ccccc2C1 (centres undefined),-4%,-7%[46.1 µM],/,/,2%,/,/,-1.3%
O=[N+]([O-])c1ccc(N2CCN(c3ccccc3F)CC2)nc1,/,23%,8%,14%,10%,8%,0%,/
CCc1ccc(-c2cc3c(=O)n(CC(=O)NCCN4CCCCC4C)nc(C)n3n2)cc1 (centres undefined),/,16%[46.1 µM],-3%,?,3%,9%,-25%,/
O=C(/C(C=Nc1ccc(Br)cc1)=C(/O)c1ccco1)C(F)(F)F,3%,?,-12%,?,-29%,-35%,5%,-8.0%
COC(=O)c1cc(C#N)c(NCc2ccc(Cl)cc2Cl)nc1C,-3%,4%,-20%,8%,-7%,-4%,1%,1.7%
Cc1ccc(CCNC(=O)C2CCCN(S(=O)(=O)N3CC(C)CC(C)C3)C2)cc1 (centres undefined),/,/,2%,/,-8%,4%,-6%,/
O=C(Oc1cccc2ccccc12)C1CC1,/,/,-12%,/,-5%,-5%,-1%,/
COc1ccc(CCNC(=O)c2ccc3c(c2)CCN3S(=O)(=O)c2ccccc2)cc1OC,?,1%[46.1 µM],/,-15%[46.1 µM],-7%,/,/,-1.7%
CCOc1ccc(C(c2c(C)[nH]n(-c3ccccc3)c2=O)c2c(C)[nH]n(-c3ccccc3)c2=O)cc1OC,?,4%[46.1 µM],/,-2%[46.1 µM],4%,/,/,-11%
COc1ccc(-c2ccc(CCC(=O)O)n2NC(N)=O)cc1,/,/,3%,/,-16%,3%,0%,/
Cn1ccnc1SCC(=O)c1cc2ccccc2o1,25µM*,?,0%,26%,/,2%,12%,-13%
Cc1nc2cc(N3CCCCC3)c(NC(=O)c3cccnc3)cc2c(=O)n1Cc1ccccc1,28%,-11%,-17%,-1%,-5%,-2%,-2%,-1.0%
CN(C)P(=O)(C(Cl)=C(N1CCCCC1)N1CCCCC1)N(C)C,-2%,?,-9%,5%,/,-2%,-4%,5.4%
O=C(O)c1ccccc1-c1nc2ccccc2[nH]1,/,10%,9%,?,28%,/,-1%,/
CCC(=O)N(CCC(c1ccco1)C(C)C)Cc1ccccc1 (centres undefined),/,?,-21%,?,?,3%,-1%,/
COC(=O)Nc1ccc(S(=O)(=O)N2CCCC(C(=O)N3CCCCCC3)C2)cc1 (centres undefined),/,/,-14%,/,-28%,-2%,0%,/
Cc1nn(C(C)C(=O)O)c(C)c1[N+](=O)[O-] (centres undefined),/,1%,-5%,6%,-12%,4%,-1%,/
CC(C)CCNC(=O)[C@@H](c1ccccc1)N1Cc2ccccc2C1=O,-9%,1%[46.1 µM],/,8%[46.1 µM],43%[activator],/,/,-0.4%
CCN(CC)C(=O)C1=CC(c2ccc3c(c2)OCO3)=NS(=O)(=O)N1C,3%,-11%[46.1 µM],/,19%[46.1 µM],23%,/,/,-4.0%
O=C(Nc1ccc(C(=O)NCc2ccc(F)cc2)cc1)C1=CSCCO1,/,-18%[46.1 µM],5%,-24%[46.1 µM],29%,-11%,-5%,/
O=S(=O)(c1ccc(OCC(O)CN2CCN(c3ccc(F)cc3)CC2)cc1)N1CCOCC1 (centres undefined),4%,-21%,3%,2%&-12%,/,-1%,3%,0.6%
CCc1ccc(CN(C)C(=O)c2cccc(S(=O)(=O)Nc3ccccc3OC)c2)cc1,/,?,-7%,?,49%[activator],/,23%,/
COC(=O)Cn1c(=NC(=O)c2ccc(OC)c(OC)c2)sc2cc(OC)ccc21,/,13%,-10%,-11%,0%,?,-5%,?
O=C(Cn1cccc(C(F)(F)F)c1=O)c1ccc(Cl)cc1,/,-2%,3%,?,-8%,-3%,-1%,/
O=C(O)CCC1COc2ccccc2O1 (centres undefined),-5%,2%,-2%,20%,-7%,-1%,-2%,1.6%

# Look-ups from the list:
# Result of Cc1nn(C(C)C(=O)O)c(C)c1[N+](=O)[O-] (centres undefined) in RE007 growth inh: -5%
# Result of COC(=O)c1cc(C#N)c(NCc2ccc(Cl)cc2Cl)nc1C in LASV entry inh: 4%

# (further entries)
SMILES,Cruzain inh noDet,LASV entry inh,RE007 growth inh,MARV entry inh,2A StopGo,NS1 function inh,SARS PLP yeast,Cruzain Triton
c1ccc(COc2ccccc2CNC2CCCC2)cc1,/,/,-12%,?,-23%,3%,0%,/
COc1ccccc1NCC(O)COc1ccc(C(C)(C)C)cc1 (centres undefined),/,-10%,?,?,-12%,5%,-2%,/
COc1ccc(N2CCN(C(=O)c3nn(-c4ccc(C)cc4)c(=O)n(C)c3=O)CC2)cc1,1%,?,/,/,4%,/,/,-3.5%
CC(C)c1ccc(C2(O)C(=O)Nc3cc(Br)ccc32)c(O)c1 (centres undefined),/,19%[46.1 µM],-21%,8%[46.1 µM],-1%,-1%,2%,/
COc1ccc(CNC(=O)/C=C/c2cc([N+](=O)[O-])ccc2OC(F)F)cc1OC,0%,6%,0%,-5%,-31%,3%,-1%,-2.3%
CCNS(=O)(=O)c1ccc(CCC(=O)N2CCN(C(=O)OCC)CC2)cc1,/,/,7%,/,0%,1%,-6%,/
CC(C)CCNC(=O)CN(Cc1ccco1)C(=O)c1snc(C(N)=O)c1N,/,6%,-2%,?,3%,2%,0%,/
Cc1[nH]nc(SCC(=O)NCc2ccc(Cl)cc2)c1[N+](=O)[O-],-8%,1%,-9%,?,-4%,2%,4%,-1.8%
COC(=O)[C@H](C)NC(=O)NCc1ccccc1,/,-14%,-6%,1%[46.1 µM],4%,-2%,0%,/
CCCCCC1CC(CC#CCN2CCOCC2)C(=O)O1 (centres undefined),-1%,-19%[14.3 µM],-11%,10%,-25%,3%,-19%,2.8%
O=C(NNC(=O)c1ccccc1O)c1cccc(Br)c1,/,/,-3%,/,55%[activator],-32%,0%,/
CC(=O)c1c(N2CCN(C)CC2)nc(=S)n(Cc2ccccc2)c1C,5%,1%,13%,13%,-14%,16%,1%,-0.2%
CCn1c2c(c(=O)n3ncc(C(=O)N4CCN(c5ccccc5)CC4)c13)CN(Cc1ccc(OC)cc1)CC2,?,11%[46.1 µM],/,/,-17%,/,/,-0.6%
COc1cccc(CSc2nc3ccccc3c3nc(CCn4c(C)nc5ccccc54)nn23)c1,?,0%[46.1 µM],/,/,0%,/,/,2.4%
CCc1cc(=O)oc2c(C)c(OCC(=O)NCCN3CCOCC3)ccc12,/,/,-10%,/,-13%,1%,-12%,/
CC(=NCc1cccnc1)C1=C(O)c2ccccc2C1=O,-4%,3%,37%,-11%[46.1 µM],-10%,-10%,-6%,-7.0%
COc1cccc(NC(=O)CN(C)C(=O)c2ccc(COc3ccccc3)cc2)c1,/,0%,-25%,-19%,-20%,/,1%,/
CC(=O)CSc1cc(C)nc2c(-c3ccccc3)c(C)nn12,/,-18%[46.1 µM],-5%,14%[46.1 µM],-14%,-1%,0%,/
COC(=O)c1c(C)cccc1C1CN=NC12Cc1ccccc1C2=O (centres undefined),/,-1%[46.1 µM],6%,-21%,-15%,/,/,/
Cn1c(=O)oc2cc(S(=O)(=O)NCCC(=O)Nc3ccc(F)c(Cl)c3)ccc21,-11%,12%[46.1 µM],/,0%[46.1 µM],-8%,/,/,-4.6%
CCOc1cc(NC(=S)N2CCC(C(N)=O)CC2)c(C(=O)OC)cc1OCC,/,1%[46.1 µM],0%,-3%[46.1 µM],-8%,/,-5%,/
COC(=O)CC1Oc2ccccc2N(Cc2ccccc2)C1=O (centres undefined),-1%,/,12%,/,4%,-77%,-5%,9.5%
O=C(CSc1ncn[nH]1)Nc1nnc(-c2ccccc2)s1,-3%,/,1%,/,47%[activator],-25%,0%,2.5%
COc1cccc(CC(=O)N(C)C2CCCN(Cc3ccccc3F)C2)c1 (centres undefined),/,-2%,3%,?,-8%,8%,4%,/
CC(C)CN1C(=O)/C(=C/c2ccco2)NC1=S,29%,?,-10%,18%,15%,4%,-10%,-11%

# The last 4 records of the section above lead into the next.
SMILES,Cruzain inh noDet,LASV entry inh,RE007 growth inh,MARV entry inh,2A StopGo,NS1 function inh,SARS PLP yeast,Cruzain Triton
COC(=O)CC1Oc2ccccc2N(Cc2ccccc2)C1=O (centres undefined),-1%,/,12%,/,4%,-77%,-5%,9.5%
O=C(CSc1ncn[nH]1)Nc1nnc(-c2ccccc2)s1,-3%,/,1%,/,47%[activator],-25%,0%,2.5%
COc1cccc(CC(=O)N(C)C2CCCN(Cc3ccccc3F)C2)c1 (centres undefined),/,-2%,3%,?,-8%,8%,4%,/
CC(C)CN1C(=O)/C(=C/c2ccco2)NC1=S,29%,?,-10%,18%,15%,4%,-10%,-11%
N#Cc1ccc(CC(C(=O)O)N2Cc3ccccc3C2=O)cc1 (centres undefined),/,/,8%,/,-21%,1%,1%,/
Cc1cc(Cl)c2oc(C(=O)NC(C)c3ccncn3)c(C)c2c1 (centres undefined),/,-6%[46.1 µM],-3%,?,-19%,-18%,-1%,/
CCCCNC(=O)CC(NS(=O)(=O)c1ccc(C)cc1)c1ccco1 (centres undefined),-2%,-6%,2%,18%,6%,0%,-4%,2.2%
N#Cc1cc(S(=O)(=O)c2ccccc2)c(N)[nH]c1=O,?,-9%,12%,12%,-13%,12%,2%,-4.0%
Cc1cccc(NC(=O)CSc2nnc(NC(=O)C3CC3)s2)c1C,/,4%,4%,-3%[46.1 µM],-4%,0%,3%,/
CCOC(=O)C1=C(COC(=O)/C=C/c2cccc(OC)c2OC)NC(=O)NC1C (centres undefined),/,20%,4%,6%,31%[activator],10%,-4%,/
Cc1cc(-n2c(SCc3ccccc3F)nc3[nH]ncc3c2=O)ccc1Cl,?,4%[46.1 µM],/,/,-18%,/,/,-7.4%
Cc1c(C(=O)Nc2ccc(F)cc2)sc2nc[nH]c(=O)c12,-6%,-21%[46.1 µM],/,/,23%,/,/,-2.3%
